Compound activity (PubChem BioAssay)
VDR inh – inhibitors of human vitamin D receptor; P11473; VDR-SRC2-3 peptide fluorescence polarization, 2 h; Potency, µM, inactives show max response, negative = inhibition, hits mostly inhibitors; 0.93% of 400,000 active; AID 504847; active = well fitted inhibition curve with a large enough effect; inconclusive = small, poorly fitted or top-dose-only effect, or another doubt; inactive = no such curve, though single readings can be large or run the other way; note: series mostly up to about 120 µM
Target sequence (P11473 whole entry, looked up): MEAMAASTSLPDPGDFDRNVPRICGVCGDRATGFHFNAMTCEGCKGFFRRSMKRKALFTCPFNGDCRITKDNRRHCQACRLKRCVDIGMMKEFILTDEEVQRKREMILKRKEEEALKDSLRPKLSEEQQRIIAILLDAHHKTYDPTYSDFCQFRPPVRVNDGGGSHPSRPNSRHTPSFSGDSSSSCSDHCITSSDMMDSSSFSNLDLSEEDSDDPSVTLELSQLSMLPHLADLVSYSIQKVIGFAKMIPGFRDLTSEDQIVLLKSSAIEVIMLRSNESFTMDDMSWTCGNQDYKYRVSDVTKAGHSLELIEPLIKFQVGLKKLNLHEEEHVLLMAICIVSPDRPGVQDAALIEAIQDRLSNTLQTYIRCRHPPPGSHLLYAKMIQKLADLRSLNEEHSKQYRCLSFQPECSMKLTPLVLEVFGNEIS
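VDR–SRC2-3 interaction, FP format. Cmpds 23 nl via pintool, brief spin, 2 h ambient incubation.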
* hit, by the source's call; ? = inconclusive; & = joins results of further samples. % is set by controls: 0 for no effect and ±100 for the full control effect; potency is the fitted concentration of half-maximal effect. Not all compounds are listed (hit frequency here may not be typical).

SMILES	VDR inh
CCCn1cnc2c1c(=O)n(CCCCC(C)=O)c(=O)n2C	10%&-3%&-5%
CCOC(=O)C(CCc1ccccc1)NC(C)C(=O)N1Cc2ccccc2CC1C(=O)O (stereo unspecified)	1%
CCC(C)n1ncn(-c2ccc(N3CCN(c4ccc(OCC5COC(Cn6cncn6)(c6ccc(Cl)cc6Cl)O5)cc4)CC3)cc2)c1=O (stereo unspecified)	1%&-10%
CC[N+](C)(CC)CCOC(=O)C(O)(c1ccccc1)C1CCCCC1 (stereo unspecified)	-1%&7%
O=C(CS(=O)Cc1ccco1)NCC=CCOc1cc(CN2CCCCC2)ccn1 (stereo unspecified)	?
Cc1ccc(S(=O)(=O)NC(=O)NC2CCCCCCC2)cc1	-1%
CCOc1ccc(C(=O)OCCN(CC)CC)cc1	-14%&-15%
C[C@]12CCC(=O)C=C1CC[C@@H]1[C@@H]2CC[C@@]2(C)[C@H]1CC[C@]2(O)C(=O)CO	1%&-11%&-2%
Oc1ccc(/C=C/c2cc(O)cc(O)c2)cc1	-8%&3%
Cc1ccccc1OC[C@H](O)CO	-2%
CC(=O)C1CCC2C3CC(C)C4=CC(=O)CC[C@@]4(C)C3C(O)C[C@@]12C (stereo partly specified)	-1%
CCCN[C@@H](C)C(=O)Nc1c(C)csc1C(=O)OC	1%
Cc1nc(-c2ccc(Cl)cc2)oc1COC(C)(C)C(=O)O	15%
O=C(NCc1ccco1)c1ccc2c(c1)N(Cc1cccc(Cl)c1)C(=O)c1ccccc1S2=O (stereo unspecified)	-7%
CC(COc1ccccc1)NC(C)C(O)c1ccc(O)cc1 (stereo unspecified)	2%&-2%
CN(C)CCOC(=O)[C@@H](c1ccccc1)C1(O)CCCC1	-11%
COc1ccc(CCNc2nc(SCc3ccccc3Cl)nc3ccccc23)cc1OC	7%
c1ccc(CN(CC2=NCCN2)c2ccccc2)cc1	10%&-14%&0%&9%
COc1ccccc1N1CCN(CCCNc2cc(=O)n(C)c(=O)n2C)CC1	-2%&10%&-3%&-15%
COC(=O)C1=CO[C@@H](O[C@H]2OC(CO)C(O)C(O)C2O)C2C1CC(O)C2C (stereo partly specified)	5%
CCCNC(=O)C1CCC(Cn2c(=O)c3sccc3n(CC(=O)NCc3ccccc3)c2=O)CC1 (stereo unspecified)	9%
COc1ccc(S(=O)(=O)N2c3ccc(Cl)cc3[C@](O)(c3ccccc3Cl)[C@@H]2C(=O)N2CCC[C@H]2C(N)=O)cc1OC	-12%
CC(C)C1C(=O)N(S(C)(=O)=O)[C@H]2CCN(C(=O)/C=C/CN3CCCCC3)[C@@H]12 (stereo partly specified)	-2%
O=S(=O)(c1cccc2cnccc12)N1CCCNCC1	9%&-14%
Cn1c(O)c(N=NC(N)=S)c2ccccc21	?
O=c1cc(-c2ccc(O)cc2)oc2cc(OC3OC(CO)C(O)C(O)[C@H]3O[C@@H]3OC[C@@](O)(CO)C3O)cc(O)c12 (stereo partly specified)	-2%
CCOc1ccccc1C(N)=O	8%&2%
NC(=O)c1cccc(-c2cc(Nc3ccc(OC(F)(F)F)cc3)ncn2)c1	-3%
Cc1nc2ccccn2c(=O)c1CCN1CCC(C(=O)c2ccc(F)cc2)CC1	1%&-3%&-3%
Cc1c(C(=O)NCCO)[n+](=O)c2ccccc2n1[O-]	-2%
C1CCC(C(CC2CCCCN2)C2CCCCC2)CC1 (stereo unspecified)	?
CCC(C)[C@@H](N)C(=O)O (stereo partly specified)	0%&0%&3%
O=C(O)CNC(=O)c1ccccc1I	12%&5%
Cc1ccc(C)c(NC(=O)Cn2cc(C(=O)c3ccco3)c3ccccc32)c1	3%
Cn1c(=O)c2[nH]c(Br)nc2n(C)c1=O	2%
COc1ccc(C(=O)CC(=O)c2ccc(C(C)(C)C)cc2)cc1	-16%&10%
COc1cc2c(c(OC)c1OC)-c1c(cc3c(c1OC)OCO3)[C@@H](OC(C)=O)[C@H](C)[C@H](C)C2	-13%
O=C(NCCc1c[nH]c2ccccc12)c1cccnc1	-10%&-2%
COc1ccc(CNC(=O)C2CCCN(c3nnc(C)c4c(C)n(-c5ccc(C)cc5)nc34)C2)cc1 (stereo unspecified)	14%
CCC1Nc2cc(Cl)c(S(N)(=O)=O)cc2S(=O)(=O)N1 (stereo unspecified)	4%
C=CC1=C(C(=O)O)N2C(=O)C(NC(=O)/C(=N\O)c3csc(N)n3)C2SC1 (stereo unspecified)	?
CCC(=O)O	15%
COC(=O)c1ccc(O)cc1	-14%&14%
CC12CCC(CC1)C(C)(C)O2	-6%&-8%
O=C(CCN1CCC(c2ccccc2)C1)c1ccc2c(c1)OCCO2 (stereo unspecified)	14µM*
COc1ccc(/C=C/C(=O)Nc2ccccc2C(=O)O)cc1OC	0%&5%&-8%
CCOCCCNC(=O)C(=O)Nc1c2c(nn1-c1ccc(OC)cc1)CSC2	-3%
C=CC1=C(C(=O)O)N2C(=O)[C@@H](NC(=O)/C(=N\O)c3csc(N)n3)[C@H]2SC1 (stereo in doubt)	-4%
CCOC(=O)N1CCc2c(sc3c2c(=O)n(Cc2ccccc2)c(=O)n3CC(=O)Nc2ccc(F)cc2)C1	-7%
O=C1c2ccc(O)c(O)c2C(=O)c2c(O)ccc(O)c21	?

Ordered by length of the SMILES (largest number first): 22 of the compounds above
SMILES	VDR inh
COc1ccc(S(=O)(=O)N2c3ccc(Cl)cc3[C@](O)(c3ccccc3Cl)[C@@H]2C(=O)N2CCC[C@H]2C(N)=O)cc1OC	-12%
O=c1cc(-c2ccc(O)cc2)oc2cc(OC3OC(CO)C(O)C(O)[C@H]3O[C@@H]3OC[C@@](O)(CO)C3O)cc(O)c12 (stereo partly specified)	-2%
CCOC(=O)N1CCc2c(sc3c2c(=O)n(Cc2ccccc2)c(=O)n3CC(=O)Nc2ccc(F)cc2)C1	-7%
COc1ccc(CNC(=O)C2CCCN(c3nnc(C)c4c(C)n(-c5ccc(C)cc5)nc34)C2)cc1 (stereo unspecified)	14%
CCCNC(=O)C1CCC(Cn2c(=O)c3sccc3n(CC(=O)NCc3ccccc3)c2=O)CC1 (stereo unspecified)	9%
COC(=O)C1=CO[C@@H](O[C@H]2OC(CO)C(O)C(O)C2O)C2C1CC(O)C2C (stereo partly specified)	5%
C=CC1=C(C(=O)O)N2C(=O)C(NC(=O)/C(=N\O)c3csc(N)n3)C2SC1 (stereo unspecified)	?
CCOC(=O)C(CCc1ccccc1)NC(C)C(=O)N1Cc2ccccc2CC1C(=O)O (stereo unspecified)	1%
Cc1nc2ccccn2c(=O)c1CCN1CCC(C(=O)c2ccc(F)cc2)CC1	1%&-3%&-3%
O=C(CS(=O)Cc1ccco1)NCC=CCOc1cc(CN2CCCCC2)ccn1 (stereo unspecified)	?
CCC1Nc2cc(Cl)c(S(N)(=O)=O)cc2S(=O)(=O)N1 (stereo unspecified)	4%
COc1ccc(/C=C/C(=O)Nc2ccccc2C(=O)O)cc1OC	0%&5%&-8%
Cc1nc(-c2ccc(Cl)cc2)oc1COC(C)(C)C(=O)O	15%
Cc1c(C(=O)NCCO)[n+](=O)c2ccccc2n1[O-]	-2%
CCCN[C@@H](C)C(=O)Nc1c(C)csc1C(=O)OC	1%
CC(COc1ccccc1)NC(C)C(O)c1ccc(O)cc1 (stereo unspecified)	2%&-2%
O=C(NCCc1c[nH]c2ccccc12)c1cccnc1	-10%&-2%
c1ccc(CN(CC2=NCCN2)c2ccccc2)cc1	10%&-14%&0%&9%
C1CCC(C(CC2CCCCN2)C2CCCCC2)CC1 (stereo unspecified)	?
O=C(O)CNC(=O)c1ccccc1I	12%&5%
CCC(C)[C@@H](N)C(=O)O (stereo partly specified)	0%&0%&3%
CCC(=O)O	15%

Continuation:
SMILES	VDR inh
OC(C#CCN1CCCC1)(c1ccccc1)c1ccccc1	-12%&6%
CCN(CC)CCn1c(=O)c(Cc2ccc(OC)cc2)nc2ccccc21	0%
CC[C@H](C)C(N)C(=O)O (stereo partly specified)	0%
CCCCCCO	-7%
Cc1cc(-c2ccccc2)nnc1NCCN1CCOCC1	-29%&0%&9%
NC(=O)c1cn(Cc2c(F)cccc2F)nn1	2%&-7%&-10%&4%
O=C(O)c1ccc[n+]([O-])c1	-2%
COc1cc(O)c2c(=O)cc(-c3ccc(OC)c(-c4c(O)cc(O)c5c(=O)cc(-c6ccc(O)cc6)oc45)c3)oc2c1	-18%
Cc1cc(Nc2cc(N3CCN(C)CC3)nc(Sc3ccc(NC(=O)C4CC4)cc3)n2)n[nH]1	13%
CN1CCN(CCC(=O)N2c3ccccc3Sc3ccc(C(F)(F)F)cc32)CC1	1%&-4%
CN1CCN(C(c2ccccc2)c2ccccc2)CC1	11%&3%
O=C(CC1N=C2c3ccccc3N=C(SCc3ccc(F)cc3)N2C1=O)NC1CCCCC1 (stereo unspecified)	5%
CC[C@H](Cc1c(I)cc(I)c(N)c1I)C(=O)O	?
CN(C(=O)CCCOc1ccc2[nH]c(=O)ccc2c1)C1CCCCC1	-1%&4%
CC(=O)c1ccc(S(=O)(=O)NC(=O)NC2CCCCC2)cc1	-4%&-4%&-9%
CC(=O)O[C@@]1(C(C)=O)CCC2C3C=C(Cl)C4=CC(=O)C5CC5[C@@]4(C)C3CC[C@]21C (stereo partly specified)	-30%
CCOc1ccc(NC(=O)Cn2cc(C(=O)c3ccco3)c3ccccc32)cc1	-7%&4%
CCC[C@H](N[C@@H](C)C(=O)N1[C@@H]2CCCC[C@H]2C[C@H]1C(=O)O)C(=O)OCC	9%
COc1ccc(-n2ccn(CC(=O)Nc3ccc(C)c(C)c3)c(=O)c2=O)cc1OC	8%
CC(=O)OCC1=C[C@@H]2OC(=O)C3=CO[C@@H](O[C@@H]4O[C@H](CO)[C@@H](O)[C@H](O)[C@H]4O)[C@H]1[C@@H]32	10%
COc1ccc(CC(=O)NCC(c2cccs2)S(=O)(=O)c2ccc(Cl)cc2)cc1 (stereo unspecified)	-2%
Cc1cc(CC(C)CC(C)(C)C)n(O)c(=O)c1 (stereo unspecified)	-19%
C=CC1=C(C(=O)O)N2C(=O)[C@@H](NC(=O)C(N=O)c3csc(N)n3)[C@H]2SC1 (stereo partly specified)	45µM*
CN(C)CCOC(C)(c1ccccc1)c1ccccn1 (stereo unspecified)	?
COc1ccc(C2=NC(c3ccc(Cl)cc3)C(c3ccc(Cl)cc3)N2C(=O)N2CCNC(=O)C2)c(OC(C)C)c1 (stereo unspecified)	50µM*
C/C=C\C(=O)N(CC)c1ccccc1C	10%
Cc1[nH]n2c(=O)cc(-c3ccc(Cl)cc3)nc2c1-c1ccccc1	-14%
CC(=O)NC(Cc1ccccc1)C(=O)O (stereo unspecified)	-2%&-2%
CC1(C)Cc2c(sc(NC(=S)NC(=O)c3ccccc3)c2C(=O)O)CO1	-7%
CCOC(=O)c1ccc(N)cc1	-5%&10%
CC1(C)O[C@@H]2C[C@@H]3[C@H]4C[C@@H](F)C5=CC(=O)C=C[C@]5(C)[C@@]4(F)[C@@H](O)C[C@]3(C)[C@]2(C(=O)CO)O1	2%
Cc1oc(=O)oc1CN1CCN(c2cc3c(cc2F)c(=O)c(C(=O)O)c2n3C(C)S2)CC1 (stereo unspecified)	?
COc1cc(C(c2c(C)[nH][nH]c2=O)c2c(C)[nH][nH]c2=O)ccc1OC(=O)c1ccccc1F	?
COc1ccc(C(=O)NCc2ccc(OCCN(C)C)cc2)cc1OC	2%&-18%
CCN(CC)CCNC(=O)c1cc(Cl)c(N)cc1OC	-3%&0%&5%&-2%&6%
CC(O)CN(C)C (stereo unspecified)	-5%
CC(C(=O)O)c1ccc(C(=O)c2cccs2)cc1 (stereo unspecified)	-13%&-3%
Cc1c(NC(=O)c2cccnc2)c(=O)n(-c2ccccc2)n1C	12%&14%
O=C(CCNNC(=O)c1ccncc1)NCc1ccccc1	0%&-2%&-10%&4%
CCCNC(C)C(=O)Nc1c(C)csc1C(=O)OC (stereo unspecified)	-11%
